# LANA-H2A inh – blockers of LANA interaction with H2A/H2B – biochemical, FP readout, HTS, primary screen. Protein LANA1 (Human herpesvirus 8 type P (isolate GK18)), Q9QR71. cell-free LANA-H2A/H2B peptide, fluorescence polarization. inhibition, % (concentration not given with the values). hit rate 0.6% among 320,000. AID 2629, 2010; in the data active means inhibition mostly above about 10%, no sharp cut-off; inactive means mostly below about 6.7%;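 further: stock transfer was 7.5 nL into about 10 µL; 0% = median of vehicle wells and 100% = median of positive control wells; one replicate is shown; the record names a cut of 25% in any replicate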
# Beta cell apopt – inhibitors of cytokine-induced beta cell apoptosis, primary screen, luminescence | hit rate 0.8% among 300,000 | protection from apoptosis, % (concentration not given with the values) | INS-1E cytokine-induced death, ATP luminescence, 48 h; percent of positive-control rescue, neutral wells zero | AID 435005, 2010;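 active means all replicates at 75% or more, or half of them and the mean; inconclusive means half reach 75% but not the mean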;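 further: 0% = cytokine-treated negative control wells and 100% = positive control rescue; higher means more ATP so stronger rescue from cytokine killing; wells of about 40 µL received 100 nL stock; the first replicate is given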
# Calb FLC – C. albicans growth inhibition with fluconazole, primary screen, CaCi-2 strain, Alamar Blue fluorescence. C. albicans CaCi-2 (fluconazole-resistant clinical isolate) + fluconazole, 48 h. hit rate 0.57% among 300,000. growth inhibition, % (test concentration not listed);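 active means most replicates above 75%; inconclusive means exactly half above 75%; inactive means most below 75%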;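 further: all wells also contain fluconazole at 8 µg/ml as a sub-toxic cotreatment; 0% = median of DMSO wells and 100% = median of geldanamycin control wells; wells of about 8 µL received 7.5 nL stock; the first replicate is given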
# RanGTP-Imp inh – inhibitors of RanGTP-importin-beta interaction, primary screen, biochemical, FRET, CFP-Ran, YFP-importin-beta, homogeneous | Ran GTPase (GTP-bound) - importin-beta complex | cell-free CFP-Ran/YFP-importin-beta FRET ratio | hit rate 1.1% among 300,000 | inhibition, % (test concentration not listed) | AID 2216, 2009;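 active means most replicates above 15%; inconclusive means exactly half above 15%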;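 further: 0% = DMSO wells and 100% = Ran loaded with GDP instead of GTP; wells of about 40 µL received 100 nL stock; the first replicate is given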
# UCH37 DUB inh – inhibitors of human UCH37 deubiquitinase, primary screen, biochemical, Ub-AMC cleavage, fluorescence; Ubiquitin carboxyl-terminal hydrolase isozyme L5 (Homo sapiens), Q9Y5K5; inhibition, % (test concentration not listed); hit rate 0.33% among 330,000; AID 588478, 2011; purified proteasome/UCH37;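 active means mean of two replicates above 20%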;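 further: 0% = compound-free wells with enzyme and 100% = wells lacking proteasome; stock transfer was 100 nL into about 20 µL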
# Target sequence (Q9Y5K5 whole entry, looked up): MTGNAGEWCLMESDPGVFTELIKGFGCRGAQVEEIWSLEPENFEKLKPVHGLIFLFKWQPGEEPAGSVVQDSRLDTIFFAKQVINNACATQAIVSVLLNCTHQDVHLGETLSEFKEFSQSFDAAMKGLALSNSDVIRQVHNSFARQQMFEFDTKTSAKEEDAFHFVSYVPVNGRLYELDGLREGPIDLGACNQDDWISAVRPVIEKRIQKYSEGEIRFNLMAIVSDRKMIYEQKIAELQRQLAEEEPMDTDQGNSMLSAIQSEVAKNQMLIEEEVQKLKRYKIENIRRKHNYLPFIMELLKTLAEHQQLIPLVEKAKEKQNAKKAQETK
#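 Material: Human UCH37 enzyme supplied as purified proteasome complex | Schedule: 30 min compound-proteasome preincubation then 25 min substrate reaction, room temperature | Detection: AMC fluorescence from Ub-AMC cleavage, excitation 355 nm, emission 460 nm | Benchmarks: Wells without proteasome as full block, compound-free enzyme plus substrate as uninhibited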
# Beta2AR agonist – beta2AR agonists driving receptor internalization, primary screen, cell-based, FAP fluorogen, flow cytometry; Am2.2-beta2AR cells; reference of the scale not given here; response, % (test concentration not listed); hit rate 0.43% among 340,000;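 active means response above a set limit, near 3 SD of response in nonfluorescent compounds, cut at about 42% in these data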;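 further: stock transfer was 100 nL into about 11 µL; a reference agonist was the positive control; negative values mostly stem from fluorescent compounds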
# Target sequence (P07550 whole entry, looked up): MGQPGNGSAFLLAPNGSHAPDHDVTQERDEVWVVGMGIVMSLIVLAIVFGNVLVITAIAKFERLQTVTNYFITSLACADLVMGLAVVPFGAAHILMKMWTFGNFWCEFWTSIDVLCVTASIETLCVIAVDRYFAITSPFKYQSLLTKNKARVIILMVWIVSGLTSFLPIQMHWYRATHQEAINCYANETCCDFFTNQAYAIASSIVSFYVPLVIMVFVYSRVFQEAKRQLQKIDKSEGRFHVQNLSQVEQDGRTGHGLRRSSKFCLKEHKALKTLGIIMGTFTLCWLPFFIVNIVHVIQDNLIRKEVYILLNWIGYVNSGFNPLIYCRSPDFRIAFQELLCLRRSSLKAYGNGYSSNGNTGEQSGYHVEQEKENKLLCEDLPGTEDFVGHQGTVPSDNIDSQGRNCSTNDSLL
# A1 inh – caspase 3/7 activation in MEF A1-2A-BIM cells, primary screen, A1 inhibitor project, cell-based, luminescence, HTS; Caspase-Glo 3/7 luminescence, 3 h; percent of clofoctol response, vehicle zero; caspase activation, % (test concentration not listed); hit rate 0.066% among 330,000;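 active means over half of replicate activation scores above 10%, or exactly half above 10 with the replicate mean above 10; inconclusive means replicate mean below 10 yet half the replicates above 10; inactive means over half of replicates below 10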;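 further: wells of about 30 µL received 50 nL stock; many hits fall short of the cut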
# T cruzi repl – inhibitors of intracellular T. cruzi growth, primary screen, luminescence, NIH3T3 host cells. T. cruzi beta-gal in NIH3T3, 90 h. inhibition, % (concentration not given with the values). hit rate 1.4% among 300,000;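 active means mean inhibition across valid replicates above about 55%, limit read from the data; inconclusive means mean below that limit but half or more replicates reach it; inactive means mean below it, under half of replicates reach it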;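 further: signal also drops with host cell toxicity which is not excluded here; 0% = plate median of DMSO wells and 100% = zero luminescence signal; higher percent means less beta-gal luminescence so fewer parasites; stock transfer was 50 nL into about 50 µL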
# * = called active by the depositor; i = inactive; ? = inconclusive; · = no result given.
entry	mol	A1 inh	LANA-H2A inh	Calb FLC	Beta2AR agonist	T cruzi repl	UCH37 DUB inh	RanGTP-Imp inh	Beta cell apopt
1	O=C(NC(Cc1ccccc1)C(=O)O)/C(=C\c1ccco1)NC(=O)c1ccco1 (configuration not stated)	0.5	2.9	-17	-6	-11	0.7	4.3	-5
2	Cc1n[nH]c(=O)nc1NC(C)c1ccccc1 (configuration not stated)	-0.5	-2.5	-29	8	2	-0.3	-0.3	-2
3	CCC(NC(=O)c1ccc2nc(Cc3ccc(OC)cc3)oc2c1)c1ccncc1 (configuration not stated)	0.5	0.4	16	10	-3	5.2	0.4	50
4	Cc1ccccc1NS(=O)(=O)c1ccc(NC(=O)c2nc3ncccn3n2)cc1	1.0	-0.6	36	-6	12	2.3	3.7	-7
5	Cn1c(SCC(=O)N/N=C/c2ccco2)nc2ccccc21	0.6	3.2	37	-4	-23	·	0.6	-19
6	Cn1nccc1C(=O)OCC(=O)Nc1ccccc1	·	·	2	-3	-1	4.6	?	·
7	O=C(NCc1ccc(F)cc1)c1cc2ccccc2o1	-1.2	3.9	-7	-4	-30	-1.1	?	-7
8	COc1ccc(C(=O)CCNc2ccc(F)cc2)cc1	0.0	3.4	4	3	5	2.8	5.7	5
9	Cc1ccc(C)c(S(=O)(=O)N2CCCC2CNC(=O)C(=O)NCc2ccccc2C)c1 (configuration not stated)	-0.1	1.2	-4	-1	16	3.6	0.5	-2
10	COc1ccc(NC(=O)Cc2nnc(SCC(=O)Nc3ccccc3)n2C)cc1	0.4	-1.4	7	-9	7	0.5	-0.5	-9
11	[2H]C(CCOS(N)(=O)=O)c1ccccc1 (configuration not stated)	-0.4	-7.2	-8	-1	-7	6.3	8.9	-2
12	O=C(CN1C(=O)C2CCCCC2C1=O)Nc1cccc([N+](=O)[O-])c1 (configuration not stated)	0.5	·	4	-2	-6	-3.8	6.9	-1
13	Cc1c(C(=O)c2ccccc2)c2ccccn2c1CCC#N	-0.4	4.5	4	-12	-12	7.5	1.3	-1
14	CC(C)Cn1c(-c2csc3c2CCCC3)n[nH]c1=S	-1.0	4.2	-29	-5	-15	2.8	·	0
15	O=C(O)/C=C/C(=O)Nc1cccc2cccnc12	-1.1	0.6	·	-2	-18	5.0	-3.2	-4
16	CC(C)NC(=O)CCS(=O)(=O)c1ccc(Br)s1	0.7	5.6	-6	-1	-5	-0.5	-2.9	-1
17	CC(=O)Nc1ccccc1NC(=O)c1cc(C)ccc1C	0.5	-0.1	-7	10	-17	4.7	-1.5	0
18	CCN(CC)CCN1C(=O)c2ccccc2NC1c1ccccc1F (configuration not stated)	-0.2	-6.1	0	-1	-10	-494	5.1	·
19	COc1cccc(C2C(C(=O)c3ccco3)=C(O)C(=O)N2CCN(C)C)c1OC (configuration not stated)	0.5	-1.4	10	3	-28	4.7	3.9	·
20	CN(CC(=O)Nc1ccccc1Br)C(=O)CN1CCN(c2ccccc2Cl)CC1	0.7	5.6	·	-6	·	0.5	·	4
21	O=C(c1csc2c1CCCC2)N1CCN(c2ncccn2)CC1	1.2	-0.8	30	1	-6	-1.5	-1.5	-1
22	COCCNc1nc2c(c(=O)n(Cc3cccc(Br)c3)c(=O)n2C)n1C	0.8	-3.0	-3	5	-5	6.3	-4.8	-9
23	O=C(NC(=S)Nc1c(Cl)ccc2nsnc12)c1ccco1	1.7	-6.9	2	9	-48	5.3	?	-6
24	CCN(Cc1nc(-c2ccccc2)no1)C(=O)c1ccc2c(c1)OCO2	0.2	-0.5	-6	2	-7	2.0	3.1	-2
25	COc1nc(OC)nc(N2CCC(C(=O)Nc3cccc4c3CCCC4)CC2)n1	0.9	-1.1	-8	-12	-3	3.5	-2.7	4
26	CCn1c(SCCN2CCCCC2)nnc1-c1ccc(S(=O)(=O)N2CCOCC2)cc1	1.9	-2.3	2	6	19	2.3	2.6	-8
27	CCOC(=O)CN1C(=O)SC(CC(=O)Nc2nccs2)C1=O (configuration not stated)	0.6	9.4	6	-1	-5	-1.7	-1.3	-10
28	Cc1ccc(S(=O)(=O)N2[C@@H](c3cccc4ccccc34)C(C(=O)O)=C[C@H]2C(C)(C)C)cc1	0.3	·	·	8	·	3.3	·	-7
29	Cc1nn(-c2cc(Cl)ccc2N)c(=O)c2ccccc12	0.2	1.0	14	-3	-7	3.9	3.1	-1
30	CS(=O)(=O)N(Cc1ccccc1)c1ccc(C(=O)Nc2ccc(C(N)=O)cc2)cc1	-0.2	6.0	-1	7	-12	1.3	-3.2	-3
31	COc1ccc(CCN2CN(S(=O)(=O)c3ccccc3)c3nc4ccccc4nc32)cc1	-0.6	-0.4	48	-3	-9	-1.8	?	1
32	COc1ccc(CN(C)C(=O)C(Cc2ccccc2)NC(=O)c2ccccc2)c(OC)c1 (configuration not stated)	0.1	-3.9	0	10	-7	-0.2	6.1	·
33	O=C(COc1ccc(Cl)cc1Cl)N/N=C/c1ccc[nH]1	-1.2	1.6	8	1	-13	·	2.5	-8
34	O=C(CN1CCC(NC(=O)C2CCCCC2)CC1)Nc1cccc(F)c1	·	·	-6	0	6	3.1	-4.8	·
35	CCCNC(=O)C(=O)c1cccn1-c1ccsc1C(=O)OC	0.2	0.5	-4	4	6	2.8	1.7	-4
36	CC(C)(C)CN1CCC(Oc2cccc(C(=O)N3CCC[C@H]3CO)c2)CC1	0.2	9.4	-1	1	-3	-1.2	10	-2
37	COC(=O)c1cc(Br)c(=O)n(-c2ccc(OC)cc2)c1	-0.1	0.2	1	-15	-14	0.5	0.7	-2
38	O=C(NCc1ccc(Cl)cc1Cl)C1CCN(S(=O)(=O)c2ccc3c(c2)OCCCO3)CC1	0.1	-2.1	2	-9	14	-0.5	2.9	7
39	O=C(CSc1ccsc1[N+](=O)[O-])NCCc1ccccc1	0.9	-1.3	21	-7	8	1.2	-1.5	0
40	CC(/C=N/N1CCN(c2ccc(C)cc2)CC1)=C\c1ccccc1	0.7	·	-15	5	-11	·	3.0	-20
41	COc1ccc(-c2cc(=O)n(CCC#N)[nH]2)cc1	0.6	5.2	-3	3	-1	5.7	0.4	-9
42	O=C(O)c1ccc2c(c1)C(=O)N(c1cccc3ccccc13)C2=O	-0.6	-5.5	0	-4	-15	3.6	5.3	-3
43	O=C(CNCc1ccc(Cl)cc1)Nc1ccc(C(=O)N2CCCCCC2)cc1	-0.2	3.2	6	-5	-4	4.9	7.2	-4
44	Cc1cc(CNC(=O)Cc2ccc(F)cc2)c2ccccc2n1	0.3	-2.9	4	-2	1	3.3	7.7	2
45	Cc1ccc(/C=C/C(=O)Nc2cc(S(N)(=O)=O)ccc2O)cc1	-0.3	3.4	1	-4	-17	5.6	5.2	4
46	O=C(NNC(=O)C1CC(c2cccs2)=NO1)Nc1ccccc1 (configuration not stated)	-0.1	-2.4	1	1	-2	4.3	2.6	-3
47	Cc1cc(C)c2nc(NNC(=O)c3ccc(S(=O)(=O)N4CC(C)CC(C)C4)cc3)sc2c1 (configuration not stated)	0.4	1.0	2	43*	62*	-0.3	2.8	106*
48	COc1ccc(NC(=O)/C=C/c2ccco2)cn1	-3.3	2.0	5	7	-17	6.8	1.4	4
49	COc1ccc(N(CC(=O)Nc2ccccc2F)S(=O)(=O)c2ccc(OC)c(OC)c2)cc1	1.4	6.2	-1	7	-5	5.5	-2.9	·
50	COc1ccc([N+](=O)[O-])cc1NC(=O)Cn1ccsc1=N	0.4	-1.6	0	-5	9	7.3	-1.1	-1

# (listing goes on)
entry	mol	A1 inh	LANA-H2A inh	Calb FLC	Beta2AR agonist	T cruzi repl	UCH37 DUB inh	RanGTP-Imp inh	Beta cell apopt
51	C=CCn1c(COc2ccccc2)nnc1SCC(=O)N/N=C/c1ccc(C)cc1	0.1	1.3	-3	2	-8	·	-1.4	-8
52	CN(C)c1nc(Oc2ccc(C(=O)OCC(=O)Nc3ccccc3)cc2)nc(N(C)C)n1	0.4	-1.0	0	5	-5	3.8	?	-1
53	CC(=O)c1cc(CN2CCC(n3nccc3NC(=O)c3ccccc3Cl)CC2)cs1	1.2	-0.4	-10	-1	9	-1.2	0.9	0
54	COc1ccc(C(=O)NCCc2cnc[nH]2)cc1OC	0.2	3.9	-3	-8	12	1.2	4.1	-4
55	O=C(Nc1cccc(-c2ccccc2)c1)N1CCN(C(=O)Nc2cccc(-c3ccccc3)c2)CC1	0.5	-4.6	3	-6	-4	1.4	-2.4	-1
56	O=c1[nH]c2ccc(N=Cc3c(O)ccc4cc(Br)ccc34)cc2[nH]1	·	·	42	9	-33	3.1	?	·
57	CCOc1ccc(NC(=O)Nc2cccs2)cc1	-7.6	-4.7	-2	-5	3	2.8	-2.3	0
58	NS(=O)(=O)c1ccc(NC(=O)COC(=O)C2(c3ccc(F)cc3)CCCC2)cc1	0.8	1.7	-1	-2	2	3.2	2.9	-2
59	Cc1ccc(NCc2ccccc2O)cc1	-2.9	-1.7	-6	14	4	0.3	-0.8	-5
60	O=S(=O)(c1ccc(Oc2ccc(Br)cc2)cc1)N1CCOCC1	0.5	-1.5	26	-2	13	-1.7	0.9	7
61	Cc1ccc(C(=O)NCC(=O)N/N=C/c2cccs2)cc1[N+](=O)[O-]	-0.1	-2.3	0	-2	7	·	0.5	-1
62	Cn1c(SCC(=O)N2CCCC2)nnc1-c1ccc(S(=O)(=O)N2CCCC2)cc1	·	·	-4	-7	7	4.8	2.2	·
63	CC(C)C(=O)N1CCN(c2cc(N3CCN(C)CC3)c(F)cc2[N+](=O)[O-])CC1	-0.3	2.5	0	-11	77*	7.3	1.7	4
64	COc1ccc(NCc2cc(=O)[nH]c3ccccc23)cc1	0.6	-0.3	-4	-18	-29	4.3	0.1	7
65	CCOC(=O)C1CCN(CC(O)COc2ccc(C(C)(C)C)cc2)CC1 (configuration not stated)	0.0	-2.1	-25	-5	0	-1.2	4.4	-2
66	CCCCOC(=O)C1C2C=C[C@]3(CN(CCCOC)C(=O)[C@H]13)O2 (some centres not stated)	0.8	2.7	-17	-1	-10	-0.9	-3.0	-2
67	CN(C)CC[n+]1ccc(C(=O)c2ccccc2)cc1	-0.1	4.7	6	-2	-22	3.2	4.4	·
68	Cc1ccc(CS(=O)(=O)CCC(=O)O)cc1	0.2	1.2	-5	0	-8	2.9	0.4	0
69	NC(=S)N/N=C/c1ccc(C(F)(F)F)cc1	-0.2	-0.3	0	11	54	·	-3.2	·
70	Cc1ccccc1S(=O)(=O)Cc1ccc(C(=O)NCCN(Cc2ccccc2)C(C)C)o1	-0.2	-3.2	1	-8	27	2.6	3.5	-2
71	CC(C)c1ccc(NC(=O)CCS(=O)(=O)c2cccc3nonc23)cc1	0.6	-8.5	5	13	8	3.1	-3.8	-6
72	Cc1ccc(-c2cn3cccnc3n2)cc1NC(=O)c1c(-c2ccccc2Cl)noc1C	0.1	2.1	36	-18	6	i	-0.4	10
